# Mtb growth = Mycobacterium tuberculosis H37Rv growth inhibition, cell based, confirmatory dose response (AID 1949); most inactive calls were filed without a number and no value below 0 was filed; inhibition, % at 10 µg/mL; hits with a dose series show IC50 in µg/mL; 100,000 compounds, 1.6% hits;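 active = confirmed in a dose series; inconclusive = about 50% or more but not retested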;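 note: bacteria grown 7 days with compound before Alamar blue readout; 0% = untreated bacteria and 100% = reference antibiotic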
# The depositor's hits bear a star; i = inactive; ? = inconclusive. Only part of the results is shown; rates above refer to the full screens.
Structure | Mtb growth
CCOC(=O)c1c(NC(=S)Nc2ccc(C(=O)N3CCCCC3)cc2)sc(C)c1-c1ccccc1 | i
CCCn1c2ccc(F)cc2c2n[nH]c(=S)nc21 | i
O=C1C2CC=C(Cl)CC2C(=O)N1CCc1ccccc1 (stereo not given) | i
O=S(=O)(Nc1ccc(C(F)(F)F)cc1)c1cc(Cl)ccc1Cl | 4%
Cc1cccc(-n2c(SCC(=O)c3ccccc3)nnc2-c2cccs2)c1C | i
CC(=O)c1c(C)oc2ccc(NS(=O)(=O)c3ccc(F)cc3C)cc12 | i
COc1ccc(Br)cc1CN1CCN(C(=O)c2ccc([N+](=O)[O-])cc2)CC1 | i
CC(C)(C)c1ccc(C(=O)NC(=S)N2CCCC2)cc1 | 1.4µg/mL*
Cc1ccc(OCC(=O)N2CCN(C)CC2)c(Br)c1 | i
Cc1ccc(N2C(=O)CC(N3CCc4ccccc43)C2=O)cc1Cl (stereo not given) | i
Cc1cc(C)cc(OCCNC(=O)c2cccc(Cl)c2)c1 | i
O=C(O)Cc1ccc2c3c(cccc13)CC2 | i
CCOC(=O)C1=C(N)N2C(=O)C(C)SC2=C(C(=O)OCC)C1c1ccccc1 (stereo not given) | i
CCn1cnc2cc(NC(=O)c3ccccc3)ccc21 | i
CCCS(=O)(=O)N1CCN(Cc2ccccc2Cl)CC1 | i
COc1ccc(N(CC(=O)Nc2ccc(C(F)(F)F)cc2)S(C)(=O)=O)cc1Cl | i
O=C(NCCN1CCN(S(=O)(=O)c2ccc([N+](=O)[O-])cc2)CC1)C(=O)NCc1ccc(Cl)cc1 | i
O=C(NCCc1ccccc1)C(=S)NCCc1ccccc1 | 4%
O=C(NNC(=S)NCCc1ccccc1)c1ccc(Br)o1 | i
COc1ccc(-n2c(SCc3ccc(F)cc3)nc3ccccc3c2=O)cc1 | i
CC(C)(O)C#Cc1ccccc1C(=O)NC(CC(=O)O)c1ccccc1 (stereo not given) | i
CC1=C(C(=O)Nc2ccccc2C)C(c2cccs2)NC(=S)N1 (stereo not given) | 3%
COc1ccc(NC(=O)CC2Sc3ccc(Cl)cc3NC2=O)cc1 (stereo not given) | i
O=C(Oc1ccc(F)cc1)N1CCCCC1 | i
CCN(CC)C(=O)c1ccc(NC(=O)c2ccc(C)cc2)cc1 | i
O=C(c1sc2cc(F)ccc2c1Cl)N1CCN(c2ccccc2)CC1 | i
COc1ccc(N(Cc2cc3cccc(C)c3[nH]c2=O)S(C)(=O)=O)cc1 | i
COc1cc(Cl)c(C)cc1NC(=O)CSc1nnc(-c2ccncc2)n1-c1ccc(Cl)cc1 | i
CCn1c(SCC(=O)N2CCOCC2)nnc1-c1ccccc1O | i
COc1ccc(Cl)cc1S(=O)(=O)Nc1ccccc1C(=O)O | 1%
COc1cc(/C=C/c2ccc3ccccc3n2)cc(I)c1OC | 2%
COc1ccc(S(=O)(=O)N(C)CC(=O)O)cc1 | i
Cc1cnc(NC(=O)C2CCCO2)s1 (stereo not given) | 0%
Cc1ccccc1CN(CC(=O)N1CCN(c2ccccc2)CC1)S(=O)(=O)c1ccc(Cl)cc1 | 2%
CC(=O)Nc1ccc(NC(=O)c2ccc(N(C)S(C)(=O)=O)cc2)cc1 | i
O=C(Nc1ccc(F)cc1)N1CCN(C/C=C/c2ccccc2)CC1 | i
Cc1ccc(OCCCCN2CCCCC2)c(Br)c1 | i
Cc1cc(Cl)c(OCCCCNC(C)(C)C)c(Br)c1 | i
Cc1occc1C(=O)Nc1c(C)n(C)n(-c2ccccc2)c1=O | i
COc1ccc2nc(Nc3nc(C)c(C)c(=O)[nH]3)nc(C)c2c1 | i
COc1ccc(NC(=O)c2cccc(Br)c2)cc1CN1C(=O)c2ccccc2C1=O | 16%
CC(C)N1CC(C(=O)Nc2ccc([N+](=O)[O-])cc2)CC1=O (stereo not given) | i
Cc1cc(N2CCCC2)ccc1/C=C(\C#N)C(N)=S | 2%
N#CCCN(Cc1ccccc1)C(=S)Nc1ccccc1 | i
COc1cccc(C2Nc3c(C(=O)O)cccc3C3C4CCC(C4)C23)c1OC (stereo not given) | i

# Shown as labelled records: entries from further up.
molecule: Cc1ccccc1CN(CC(=O)N1CCN(c2ccccc2)CC1)S(=O)(=O)c1ccc(Cl)cc1
  Mtb growth: 2%
molecule: CC(=O)Nc1ccc(NC(=O)c2ccc(N(C)S(C)(=O)=O)cc2)cc1
  Mtb growth: i
molecule: O=C(Nc1ccc(F)cc1)N1CCN(C/C=C/c2ccccc2)CC1
  Mtb growth: i
molecule: Cc1ccc(OCCCCN2CCCCC2)c(Br)c1
  Mtb growth: i

# Other results.
Structure | Mtb growth
COc1ccc2nc(NC(=O)CSc3nnc4c5cc(Br)ccc5n(C)c4n3)sc2c1 | 6%
O=S(=O)(NCc1cccs1)c1ccc(I)cc1 | 8%
Cc1c(NC(=S)NC(=O)c2ccccc2Cl)cccc1C(=O)O | i
COc1ccc(NC(=O)c2ccccc2NC(=O)c2ccc(Br)o2)cc1 | i
O=C(CSc1nnc(-c2ccccc2)n1-c1ccccc1)Nc1cccc2ccccc12 | 18%
CCOc1ccc(S(=O)(=O)N2CCN(c3ccccc3OC)CC2)c2ccccc12 | i
CSc1ccccc1NC(=O)Cn1nc(C(F)(F)F)c(Cl)c1C | i
CCCn1c(Cc2ccccc2)nnc1SCC(=O)Nc1cccc(Cl)c1C | i
Cc1cc(C)cc(NC(=O)CCN2CCCC2)c1 | 2%
COc1ccc(S(=O)(=O)N2CCCCCC2)c([N+](=O)[O-])c1 | i
CCOC(=O)c1c(-c2ccc(Cl)cc2)csc1N | 16%
O=C(Nc1ccc(C(=O)N2CCOCC2)cc1)c1cc(-c2cccnc2)nc2ccc(Cl)cc12 | ?
CCN(CC)C(=O)C(=O)Nc1c(Cl)cccc1Cl | i
CC(C)c1ccc(C(=O)N2CCN(c3cccc(C(F)(F)F)c3)CC2)cc1 | 6%
O=C(c1ccccc1Cl)N1CCN(c2ccc([N+](=O)[O-])c(NC3C4CC5CC(C4)CC3C5)c2)CC1 (stereo not given) | 1%
Cc1c(C(=O)Nc2ccccc2)sc2ncn(C)c(=O)c12 | i
COC(=O)C1=CN(CC2CCCO2)C=C(C(=O)OC)C1c1cccs1 (stereo not given) | i
Cc1cc(Cl)ccc1OCC(=O)Nc1ccc(N2CCN(C)CC2)c(Cl)c1 | 5.6µg/mL*
CSc1nc(-c2ccccc2)nn1C(=O)Cc1ccccc1 | 1%
CC1=NN(c2ccc(Cl)c(C(=O)O)c2)C(=O)/C1=C\c1ccc(Cl)cc1 | i
COc1ccc(S(=O)(=O)Nc2ccc(C(N)=O)cc2)cc1 | i
Cn1cnnc1SCc1cccc(Br)c1 | i
Cc1nn(CC(=O)Nc2cccc(Br)c2)c(=O)c2ccccc12 | i
O=C(Nc1ccccn1)C1c2ccccc2Oc2ccccc21 | 1%
CCc1c(C)sc(NC(=O)c2ccccc2Br)c1C(=O)OC | 8%
O=c1oc2cc(OCc3cccc(C(F)(F)F)c3)ccc2c2c1CCCC2 | i
CCCNC(=O)C(CC)c1ccccc1 (stereo not given) | i
CC1=C(C(=O)Nc2ccc(F)cc2)C(c2ccc(Cl)cc2)C2=C(CC(C)(C)CC2=O)N1 (stereo not given) | i
Cc1ccc(NC(=O)CSc2nnc3nc(C)cc(C)n23)cc1 | i
COc1cc2[nH]c(=S)n(CCN3CCOCC3)c(=O)c2cc1OC | i
NC(=O)C1CCN(C(=S)NC(=O)c2ccc(F)cc2)CC1 | i
CCCCc1nnc(NC(=O)CCS(=O)(=O)Cc2ccccc2)s1 | i
Cc1sc2ncn(Cc3ccc(Cl)c(Cl)c3)c(=O)c2c1C | 5%
COc1cccc(C2C(C(=O)Nc3ccccc3)=C(C)N=c3s/c(=C\c4ccc(N(C)C)o4)c(=O)n32)c1 (stereo not given) | i
C=CCNCc1ccccc1OCC(=O)NC1CCCCC1 | i
CCOC(=O)c1ccc(NC(=O)C(CC(=O)O)NCc2ccccc2)cc1 (stereo not given) | i
O=C(CN1CCOCC1)Nc1ccc(S(=O)(=O)N2CCOCC2)cc1 | 2%
O=C(Nc1ccc2nsnc2c1)N1CCSCC1 | i
COc1ccc(S(=O)(=O)NC(C(C)C)C(C)C)cc1OC | i
O=S(=O)(Nc1nnc(C(F)(F)F)s1)c1ccc(Cl)cc1 | i
Cc1ccc(OCC(=O)NCCO)cc1 | i
COc1cccc(Cn2cnc3c2c(=O)n(C)c(=O)n3C)c1 | i
CSc1cccc(NC(=O)CN(c2ccc(C)c(Cl)c2)S(=O)(=O)c2ccccc2)c1 | 1%
Cc1cc(NC(=O)c2ccc(Cl)cc2Cl)c([N+](=O)[O-])cc1C | 5%
CC1=C(C(=O)Nc2ccc(C)cc2)C(c2ccc(Cl)cc2)C2=C(CCCC2=O)N1 (stereo not given) | i
CCC(=O)Nc1ccc(C(=O)NCc2ccc(Cl)cc2)cc1 | 23%
COc1ccc2c(c1)C(=O)CC(c1ccccc1Cl)O2 (stereo not given) | 2%
CNC(=S)Nc1ccccc1Oc1ccccc1 | i
O=C(c1ccc(Cl)cc1[N+](=O)[O-])N1CCN(c2ccccn2)CC1 | i
COc1ccc(OC(=O)C(C)Oc2ccc(F)cc2)cc1 (stereo not given) | i
CCC(=O)c1cc2c(cc1NC(=O)c1ccc(C)cc1)OCCO2 | i
CCN1CCN(C(=O)N(CC)CC)CC1 | i
Cc1c(Cl)cccc1NC(=O)CSC1=C(C#N)C(c2ccccc2F)CC(=O)N1 (stereo not given) | 1%
COc1cccc(-n2c(/C=C/c3ccc([N+](=O)[O-])o3)nc3ccc(I)cc3c2=O)c1 | 5%
COc1ccc(Br)cc1S(=O)(=O)Oc1c(Cl)cccc1Cl | i
Cc1ccccc1OCC(=O)N=Nc1c(O)[nH]c2ccccc12 | i
Cc1cc(OC(=O)c2ccccc2)c(C(C)C)cc1NC1=NS(=O)(=O)c2ccccc21 | i
CC(=O)c1ccc(NC(=O)CN(c2ccc(I)cc2)S(C)(=O)=O)cc1 | i
COc1ccc(C(=O)Nc2ccc3oc(-c4ccccc4C)nc3c2)cc1 | 2%
O=C1NC(=O)C(CCc2ccncc2)(CCc2ccncc2)C(=O)N1CCC1=CCCCC1 | i

# Single values from the entries so far:
# Result for `COc1ccc2c(c1)C(=O)CC(c1ccccc1Cl)O2` (stereo not given) in Mtb growth: 2%
# Result for `CCC(=O)Nc1ccc(C(=O)NCc2ccc(Cl)cc2)cc1` in Mtb growth: 23%
# Result for `Cc1c(Cl)cccc1NC(=O)CSC1=C(C#N)C(c2ccccc2F)CC(=O)N1` (stereo not given) in Mtb growth: 1%

# Other structures.
Structure | Mtb growth
COc1cccc(OCC(=O)NNC(=S)Nc2ccc(Cl)cc2Cl)c1 | i
Cc1nnc(SCc2nc(-c3ccc(Br)cc3)no2)n1-c1ccccc1 | i
Cc1ccc(N2CCN(S(=O)(=O)c3ccccc3)CC2)cc1C | i
Cc1ccc(C)c(OCC(=O)NCc2ccco2)c1 | i
CCOc1ccc(NS(=O)(=O)c2ccc(NC(=O)COc3ccc(C(C)C)cc3)cc2)cc1 | 1%
Cc1cc(C2C(C#N)=C(N)Oc3n[nH]c(C)c32)c(C)s1 (stereo not given) | i
Cc1ccc(-n2c(-c3ccco3)n[nH]c2=S)cc1 | i
CCOC(=O)C1CCN(C(=O)c2cc(OC)c(OC)cc2OC)CC1 | i
CCC(=O)Nc1ccc(Oc2ccc3c(c2)C(=O)NC3=O)cc1 | i
CCOC(=O)C1CCN(C(=O)COc2cc(C)ccc2C)CC1 | i
CC(C)(C)c1ccc(S(=O)(=O)Nc2ccc3c(c2)OCCO3)cc1 | i
Cc1ccc(-c2nn(C)c(=O)c3ccccc23)cc1CNC(=O)CN1CCOCC1 | i
Cc1cccc(OCC(=O)Nc2ccc(S(=O)(=O)N3CCc4ccccc43)cc2)c1 | i
CN(C)S(=O)(=O)c1cc(C(N)=O)c(Cl)cc1Cl | i
Cc1c(Cl)cccc1N1C(=O)C2C(c3ccc(Br)cc3)OC3(C(=O)c4ccccc4C3=O)C2C1=O (stereo not given) | i
CCN(CC)c1ccc(NC(=O)c2ccco2)c(C)c1 | i
CCOc1ccccc1N(CC(=O)NCc1ccncc1)S(=O)(=O)c1ccc(SC)cc1 | i
CC(=O)c1c(C)n(CC2CCCO2)c2ccc(O)cc12 (stereo not given) | i
Cc1ccc(S(=O)(=O)CC(=O)Nc2ccc(-c3nc4ccc(C)cc4s3)cc2)cc1 | 0%
O=S(=O)(CCc1nc2ccccc2o1)c1ccc(Cl)cc1 | i
Cc1c(OC(C(=O)O)c2ccccc2)ccc2c3c(c(=O)oc12)CCC3 (stereo not given) | i
Cc1cc(N2CCCC2)c(C)cc1C=O | i
Cc1ccc2nc(-c3ccccn3)cc(C(=O)Nc3cccnc3)c2c1 | i
Cn1c(=O)c2c(-c3ccccc3)n(-c3cccc([N+](=O)[O-])c3)cc2n(C)c1=O | 18%
CCCCc1nnc(NC(=O)c2ccc([N+](=O)[O-])c(C)c2)s1 | i
CCOC(=O)c1ccc(NC(=O)Nc2cccc(Cl)c2Cl)cc1 | i
O=S(=O)(Cc1ccccc1Cl)NC1CCCCCC1 | i
O=[N+]([O-])c1ccc(N2CCN(S(=O)(=O)c3ccc(F)cc3)CC2)cc1NC1CC1 | i
Cc1noc(C)c1C(=O)N1CCC2(CC1)OCCO2 | 2%
COc1ccc(NC(=O)CCCOc2cc(C)ccc2C)c(OC)c1 | 3%
CCOc1ccc(NS(=O)(=O)c2ccc(NS(=O)(=O)c3ccc4c(c3)OCCO4)cc2)cc1 | 3%
Cc1ccccc1CSCCNC(=O)CN(c1ccc([N+](=O)[O-])cc1)S(=O)(=O)c1ccccc1 | i

# A different layout for part of the listing above.
Cc1cc(N2CCCC2)c(C)cc1C=O
  Mtb growth = i
O=[N+]([O-])c1ccc(N2CCN(S(=O)(=O)c3ccc(F)cc3)CC2)cc1NC1CC1
  Mtb growth = i
